PV pol inh – inhibitors of poliovirus RNA polymerase binding and polymerization; P03300; AID 588519; hit rate 0.66% among 150,000; poliovirus polymerase elongation, fluorescence polarization; stronger effect = lower value; % elongation, % (compound at 16.7 µg/mL); in the data active = % elongation below about 90%; also: some results filed as inactive read as strong as hits
Target sequence (P03300 1749-2209 limits assumed): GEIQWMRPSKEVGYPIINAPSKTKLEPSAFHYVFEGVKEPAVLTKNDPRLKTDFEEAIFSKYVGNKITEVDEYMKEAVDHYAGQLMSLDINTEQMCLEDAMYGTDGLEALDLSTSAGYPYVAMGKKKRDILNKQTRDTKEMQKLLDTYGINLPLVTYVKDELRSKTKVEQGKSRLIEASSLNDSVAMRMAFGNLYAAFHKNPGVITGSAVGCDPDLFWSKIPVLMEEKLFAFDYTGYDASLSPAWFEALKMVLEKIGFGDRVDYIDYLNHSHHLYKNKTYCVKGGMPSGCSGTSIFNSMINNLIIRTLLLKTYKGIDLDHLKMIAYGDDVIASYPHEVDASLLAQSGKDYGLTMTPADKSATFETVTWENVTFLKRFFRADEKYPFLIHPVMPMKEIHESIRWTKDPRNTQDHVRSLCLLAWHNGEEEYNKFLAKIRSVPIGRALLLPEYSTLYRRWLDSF
PV pol inh intensity – further read-out of PV pol inh, marked with its call; % elongation; measured here: total intensity read-out; formula for this scale not given here;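 total fluorescence in place of polarization; lower means less elongation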
Starred values were filed as active, the others as inactive.

Order of values: PV pol inh	PV pol inh intensity
- Cc1ccc(-n2cnc3cc(C(=O)NC4CCCCCC4)ccc32)c(C)c1
→ 108.0	112.0
- COc1ccc(-c2nc(-c3cc4cc(Br)ccc4oc3=O)cs2)cc1
→ 109.0	110.0
- Cn1c(=O)c2c(-c3ccccc3Cl)n(Cc3ccc(Cl)cc3)cc2n(C)c1=O
→ 104.0	102.0
- COc1cccc(-c2nc3c(c(SCC(=O)Nc4cccc(C)c4C)n2)Cc2c(CO)cnc(C)c2O3)c1
→ 96.0	97.0
- COc1ccc2cc(CNc3ccc(C)cc3)c(=O)n(CC(=O)Nc3cccc(C(F)(F)F)c3)c2c1
→ 107.0	108.0
- COCCc1nn2c(=O)cc(COC(=O)c3ccc4c(c3)OCO4)nc2s1
→ 105.0	100.0
- Cc1ccc(CNc2ccc(-c3nc(-c4ccco4)no3)cc2[N+](=O)[O-])cc1
→ 111.0	109.0
- Cc1ccc2c(CC(=O)Nc3ccc(S(=O)(=O)N4CCCCC4)cc3)coc2c1
→ 119.0	119.0
- CC(C)(C)OC(=O)N1CCC(c2c(C(=O)NCCc3ccsc3)cnn2-c2ccc(F)cc2F)CC1
→ 102.0	108.0
- COC(=O)c1cc2oc3ccccc3c2n1Cc1ccc(C)cc1
→ 115.0	115.0
- CCCN(Cc1cc2cc(C)ccc2[nH]c1=O)C(=O)c1cccc(Cl)c1
→ 122.0	123.0
- O=C(Nc1ccc(F)c(F)c1)c1ccc(F)c(S(=O)(=O)N2CCC3(CC2)OCCO3)c1
→ 109.0	112.0
- Cc1ccc(-n2ncc3c(N4CCC(Cc5ccccc5)CC4)ncnc32)cc1C
→ 113.0	115.0
- Cc1cccc(Cn2c(=O)n(CCc3ccccc3)c(=O)c3c(C)c(C)sc32)c1
→ 103.0	109.0
- Cc1ccc(-n2c(SCC(=O)O)nc3sc4c(c3c2=O)CCCC4)cc1
→ 104.0	108.0
- COc1ccc(NC(=O)CN(C)S(=O)(=O)c2ccc3c(c2)CCCN3C(C)=O)cc1Cl
→ 103.0	108.0
- CCCc1cnc2c(c1SCC(=O)Nc1ccc([N+](=O)[O-])cc1)c(=O)n(C)c(=O)n2C
→ 106.0	109.0
- CCc1nnc(NC(=O)c2nc(SCc3ccc(F)cc3)ncc2Cl)s1
→ 108.0	106.0
- COc1ccc(N(C(=O)c2ccc(C)cc2)S(=O)(=O)c2ccc(Cl)cc2)cc1
→ 110.0	110.0
- Cc1ccccc1CSc1nc2cc(C(=O)NC3CCCC3)ccc2c(=O)n1Cc1ccccc1
→ 109.0	113.0

(more compounds)
Order of values: PV pol inh	PV pol inh intensity
- Cc1ccc(-c2cnc(C3CC3)o2)cc1S(=O)(=O)Nc1cccc(C)c1C
→ 105.0	111.0
- Cc1cccc(N2CCN(C(=O)C(C)n3nc(C)n4c(cc5occc54)c3=O)CC2)c1C (configuration not stated)
→ 105.0	106.0
- CC1CCCN(CCCNC(=O)c2ccc3c(c2)N(Cc2ccccc2F)C(=O)c2ccccc2S3(=O)=O)C1 (configuration not stated)
→ 110.0	102.0
- CCc1ccc(Sc2cc(C(=O)NCCCN3CCC(C)CC3)c3ccccc3n2)cc1
→ 108.0	107.0
- CCOc1ccc(C2C(=O)N(C3CCCCC3)CC(=O)N2Cc2ccc(F)cc2)cc1OC (configuration not stated)
→ 109.0	109.0
- Cc1ccc(N(CC(=O)Nc2ccc(Br)c(C)c2)S(=O)(=O)c2cccs2)cc1
→ 106.0	102.0
- COc1ccc(N2CCN(C(=O)c3ccc4c(Cl)c5c(nc4c3)CCCC5)CC2)cc1
→ 108.0	106.0
- COc1ccc(S(=O)(=O)NCC(c2ccco2)S(=O)(=O)c2ccc(C)cc2)cc1F (configuration not stated)
→ 109.0	113.0
- Cc1ccc(NC(=O)CSc2nc(C)c(Cc3ccccc3)c(=O)[nH]2)cc1
→ 104.0	105.0
- COc1ccc(NC(=O)CC(C)S(=O)(=O)c2cc3c(cc2C)NC(=O)CO3)cc1OC (configuration not stated)
→ 106.0	110.0
- COc1cc2c(C(=O)N(C)c3cc(Cl)ccc3OC)cn(CC(C)C)c(=O)c2cc1OC
→ 101.0	102.0
- CC(C)(C)c1ccc(OCC(=O)N2CCC(c3nc4ccccc4s3)CC2)cc1
→ 109.0	114.0
- COCc1cc(C)nc2sc3c(c12)NC(c1ccc(O)cc1)N(c1ccc(C)cc1)C3=O (configuration not stated)
→ 103.0	111.0
- Cc1ccc(C(=O)NCC(c2cccs2)S(=O)(=O)c2cccs2)cc1C (configuration not stated)
→ 111.0	108.0
- CCOc1ccccc1CNS(=O)(=O)c1ccc2c(c1)C(C)(C)C(=O)N2C
→ 106.0	103.0
- O=C(Nc1ccccc1C(F)(F)F)c1cc(-c2ccc3c(c2)OCCO3)on1
→ 103.0	103.0
- CCOC(=O)c1cc(C)n(CC2CCC(C(=O)Nc3ccc(C(C)=O)cc3)CC2)c1C (configuration not stated)
→ 108.0	114.0
- COC(=O)c1cc2sccc2n1Cc1nc(-c2cccc(Br)c2)oc1C
→ 101.0	104.0
- COc1ccc(-n2ccn3c(CC(C)(C)CC(=O)O)nnc3c2=O)cc1
→ 101.0	107.0
- O=C(CCS(=O)(=O)c1cc2c(cc1Cl)NC(=O)CO2)NCCc1ccc(Cl)cc1
→ 110.0	98.0

Single entries from the results shown:
For PV pol inh, `COC(=O)c1cc2sccc2n1Cc1nc(-c2cccc(Br)c2)oc1C` is entered as 101.0
For PV pol inh intensity, `Cc1ccccc1CSc1nc2cc(C(=O)NC3CCCC3)ccc2c(=O)n1Cc1ccccc1` is entered as 113.0
For PV pol inh intensity, `O=C(Nc1ccc(F)c(F)c1)c1ccc(F)c(S(=O)(=O)N2CCC3(CC2)OCCO3)c1` is entered as 112.0

Continued.
Order of values: PV pol inh	PV pol inh intensity
- CCc1ccc(S(=O)(=O)c2cn(C)c3cc(OC)c(OC)cc3c2=O)cc1
→ 101.0	106.0
- Cc1sc2c(c1C)c(=O)n(Cc1ccccc1)c(=O)n2Cc1ccc(F)cc1
→ 108.0	113.0
- Cc1ccc(NC(=O)Cn2nnc(-c3nc(-c4ccncc4)no3)c2N)c(C)c1
→ 111.0	117.0
- Cc1ccc(CNC(=O)c2cc3c(=O)n(Cc4ccco4)ccc3nc2C)cc1
→ 103.0	110.0
- O=C(NCCN1CCN(c2cccc(Cl)c2)CC1)Nc1ccccc1C(F)(F)F
→ 101.0	101.0
- COc1ccc(Cn2c(C(=O)O)c(CNC3CCC(C)CC3)c3ccc(C)cc32)cc1 (configuration not stated)
→ 106.0	101.0
- Cc1csc2nc(COC(=O)CNC(=O)c3ccccc3Cl)cc(=O)n12
→ 107.0	104.0
- CCOc1ccccc1NC(=O)C1CCN(S(=O)(=O)c2ccc3[nH]c(=O)ccc3c2)CC1
→ 105.0	107.0
- COc1ccc(N2CCN(c3nc4ccccc4n4c(C)nnc34)CC2)cc1
→ 104.0	108.0
- CCCCC(=O)OC1=C(C(=O)c2ccccc2)N(CCC)S(=O)(=O)c2ccccc21
→ 98.0	102.0
- CCOc1ccccc1NC(=O)c1nc2nc(C)cc(C(F)F)n2n1
→ 106.0	110.0
- COc1ccc(NC(=O)C2CCCN2S(=O)(=O)c2ccc3c(c2)CCCC(=O)N3)cc1Cl (configuration not stated)
→ 112.0	113.0
- COc1ccc(Cl)cc1NC(=O)N1CCN(Cc2cc(=O)n3nc(-c4ccccc4)sc3n2)CC1
→ 111.0	115.0
- Oc1cccc(-c2nc(-c3cccs3)c(-c3cccs3)[nH]2)c1
→ 109.0	108.0
- O=C(Nc1cccnc1)c1cc(-c2ccc(Cl)cc2)on1
→ 105.0	106.0
- COC(=O)CC1Oc2ccc(C)cc2-n2cc(-c3ccc(F)cc3)nc21 (configuration not stated)
→ 107.0	109.0
- Cc1ccc(Cl)cc1N1CCN(C(=O)COc2cc(=O)n(C)c3ccccc23)CC1
→ 110.0	110.0
- CCOc1ccc(CN2C(=O)c3ccccc3Sc3ccc(C(=O)N4CCC5(CC4)OCCO5)cc32)cc1
→ 109.0	112.0
- CC1CCN(C(=O)CSc2nc(-c3ccccc3)no2)CC1
→ 102.0	95.0
- Cc1cccc(C(=O)NCc2nnc(SCC(=O)Nc3ccccc3F)n2-c2ccccc2)c1
→ 103.0	105.0

Later entries
Order of values: PV pol inh	PV pol inh intensity
- COc1ccc2cc(CNc3ccc(C)cc3)c(=O)n(CC(=O)Nc3ccc(C)cc3Cl)c2c1
→ 107.0	103.0
- CC(=O)NCCNc1nc2c(-c3ccc(C)cc3)nnn2c2ccccc12
→ 103.0	105.0
- COc1cccc(N2CCN(C(=O)Cn3nc(C)n4c(cc5c(OC)cccc54)c3=O)CC2)c1
→ 105.0	105.0
- COc1cc2c(cc1OC)C(COc1cccc(C(F)(F)F)c1)N(C(=O)c1ccc(S(=O)(=O)N3CCCC3)cc1)CC2 (configuration not stated)
→ 111.0	113.0
- CCOc1ccc(CNC(=O)CN2N=C(c3ccccc3)CCC2=O)cc1OC
→ 104.0	97.0
- Cc1cccc(-c2noc(CN(C3CCCCC3)S(=O)(=O)c3ccc(F)cc3)n2)c1
→ 108.0	115.0
- CCCCCn1c(CCCNC(=O)c2ccccc2OC)nc2ccccc21
→ 108.0	109.0
- Cc1cc(Cl)ccc1OCC(=O)N(Cc1ccc(N(C)C)cc1)C1CCS(=O)(=O)C1 (configuration not stated)
→ 103.0	104.0
- Cc1nnc(NCc2ccc(Cl)cc2)c2c1nnn2Cc1ccc(F)cc1
→ 106.0	112.0
- CCN(CC)S(=O)(=O)c1ccc2c(c1)nc(CN(C)C(=O)Nc1ccc(F)cc1)n2C
→ 105.0	110.0
- Cc1cc(C(F)(F)F)n2nc(-c3ccc(Br)cc3)cc2n1
→ 112.0	116.0
- CCN(CC)CCN(C(=O)c1ccco1)c1nc2ccc(F)cc2s1
→ 103.0	109.0
- CCOC(=O)NNC(=O)C1CCC(C)CC1 (configuration not stated)
→ 102.0	104.0
- COc1ccc(-n2ncc(C(=O)N3CCc4ccccc4C3)c2C2CCN(C(=O)OC(C)(C)C)CC2)cc1
→ 105.0	106.0
- COc1ccccc1N(CC(=O)NCCSCc1cccc(Cl)c1)S(C)(=O)=O
→ 106.0	109.0
- CC(=O)Nc1ccc(NC(=O)c2csnn2)cc1
→ 105.0	109.0
- Cc1ccc(-c2onc(C)c2C)cc1S(=O)(=O)NC1CCC(C)CC1 (configuration not stated)
→ 114.0	112.0
- O=C(CCCCn1c(=O)c2ccccc2n(Cc2cccc(Cl)c2)c1=O)NCc1ccc2c(c1)OCO2
→ 105.0	107.0
- Cc1cccc(CNC(=O)C2CCCN(S(=O)(=O)c3cn(C)cn3)C2)c1 (configuration not stated)
→ 112.0	118.0
- COc1ccc(-c2nc3scc(CCNS(=O)(=O)c4cccs4)n3n2)cc1
→ 102.0	100.0

Molecules from the list above with two or more sulfur atoms, in the order listed:
Order of values: PV pol inh	PV pol inh intensity
- Cc1ccc(-n2c(SCC(=O)O)nc3sc4c(c3c2=O)CCCC4)cc1
→ 104.0	108.0
- CCc1nnc(NC(=O)c2nc(SCc3ccc(F)cc3)ncc2Cl)s1
→ 108.0	106.0
- Cc1ccc(N(CC(=O)Nc2ccc(Br)c(C)c2)S(=O)(=O)c2cccs2)cc1
→ 106.0	102.0
- COc1ccc(S(=O)(=O)NCC(c2ccco2)S(=O)(=O)c2ccc(C)cc2)cc1F (configuration not stated)
→ 109.0	113.0
- Cc1ccc(C(=O)NCC(c2cccs2)S(=O)(=O)c2cccs2)cc1C (configuration not stated)
→ 111.0	108.0
- Oc1cccc(-c2nc(-c3cccs3)c(-c3cccs3)[nH]2)c1
→ 109.0	108.0
- COc1ccccc1N(CC(=O)NCCSCc1cccc(Cl)c1)S(C)(=O)=O
→ 106.0	109.0
- COc1ccc(-c2nc3scc(CCNS(=O)(=O)c4cccs4)n3n2)cc1
→ 102.0	100.0

(continued)
Order of values: PV pol inh	PV pol inh intensity
- CCOC(=O)c1cnc2ccc(Cl)cc2c1Nc1ccc(N2CCOCC2)cc1
→ 101.0	103.0
- CN1C(=O)c2ccccc2Sc2ccc(NC(=O)N3CCN(c4ccccc4F)CC3)cc21
→ 104.0	111.0
- COc1ccc(-c2nn3c(=O)cc(CN4CCN(C(=O)COc5ccc(F)cc5)CC4)nc3s2)cc1
→ 105.0	114.0
- CCOC(=O)c1cnc2c(ccc3ccccc32)c1Nc1ccc(OCC)cc1
→ 104.0	107.0
- CC(=O)c1ccc(NC(=O)CSc2nnc(NC(=O)NC3CCCCC3)s2)cc1
→ 109.0	112.0
- CN1C(=O)Cc2cc(S(=O)(=O)CCC(=O)Nc3ccc(OC(F)(F)F)cc3)ccc21
→ 102.0	107.0
- Cc1c(Cl)ccc2sc(N3CCN(C(=O)C(C)C)CC3)nc12
→ 109.0	107.0
- Cc1nnc(SCC(=O)NCc2ccccc2Cl)c2nn(-c3ccccc3)c(C)c12
→ 99.0	97.0
- Cc1ccc(NC(=O)CSc2ncn[nH]2)cc1C
→ 101.0	99.0
- CCOc1ccccc1NC(=O)CSc1ncc(S(=O)(=O)c2ccc(C)c(C)c2)c(N)n1
→ 108.0	103.0
- CCn1c(=O)cc(SCC(=O)NCc2ccccc2OC)c2ccccc21
→ 112.0	111.0

One compound at a time, as listed above.
CCn1c(=O)cc(SCC(=O)NCc2ccccc2OC)c2ccccc21 in the list: PV pol inh: 112.0; PV pol inh intensity: 111.0
COc1ccc(-c2nn3c(=O)cc(CN4CCN(C(=O)COc5ccc(F)cc5)CC4)nc3s2)cc1 in the list: PV pol inh: 105.0; PV pol inh intensity: 114.0
CN1C(=O)c2ccccc2Sc2ccc(NC(=O)N3CCN(c4ccccc4F)CC3)cc21 in the list: PV pol inh: 104.0; PV pol inh intensity: 111.0

These rows are one share of the data; rates above refer to the full screens.
